High-throughput results (PubChem)
Cruzain inh noDet – inhibitors of Trypanosoma cruzi cruzain without detergent | P25779 | purified cruzain, Z-FR-AMC fluorescence, no detergent | Potency, µM, without a hit: max response, negative = inhibition, most hits filed as inhibitors | hit rate 2.3% among 200,000;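 note: plate controls were enzyme without inhibitor for no effect and buffer without enzyme for full effect; nearly all actives have a fitted effect of over 40% in size; top concentration of the series not given in the record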
Target sequence (P25779 123-467 limits assumed): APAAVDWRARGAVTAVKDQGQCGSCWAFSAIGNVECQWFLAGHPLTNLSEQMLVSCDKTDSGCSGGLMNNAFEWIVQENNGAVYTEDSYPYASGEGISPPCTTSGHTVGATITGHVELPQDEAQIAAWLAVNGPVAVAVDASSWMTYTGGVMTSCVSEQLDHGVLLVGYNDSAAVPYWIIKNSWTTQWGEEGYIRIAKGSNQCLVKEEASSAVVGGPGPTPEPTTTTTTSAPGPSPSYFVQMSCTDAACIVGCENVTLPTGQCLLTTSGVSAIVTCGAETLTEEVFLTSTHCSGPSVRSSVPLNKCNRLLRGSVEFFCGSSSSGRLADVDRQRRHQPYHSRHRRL
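Detergent-free condition (0.00005% Triton X-100) in acetate buffer pH 5.5 with DTT. 1.5 nM enzyme and compound were pre-mixed 15 min, then 2 uM Z-FR-AMC substrate added; reaction progress from fluorescence change between first and third reads (60 s).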
Cruzain inh Det – cruzain (T. cruzi) inhibition with detergent; P25779; Potency, µM, without a hit: max response, negative = inhibition, most hits filed as inhibitors; purified cruzain, Z-FR-AMC fluorescence, 0.01% Triton; hit rate 0.43% among 200,000; AID 1478;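 note: plate controls were neutral wells for no effect and buffer without enzyme for full effect; nearly all actives have a fitted effect of over 40% in size; top concentration of the series not given in the record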
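Compounds were screened in titration against cruzain (1.5 nM) with 0.01% Triton X-100 to counter colloidal aggregation. Activity was the AMC fluorescence increase over 60 s after adding 2 uM Z-FR-AMC at pH 5.5.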
An asterisk follows results filed as active; ? = inconclusive; & = joins results of further samples. Calls come from the whole dose curve; as a rule, active = well fitted curve in the direction sought with a large enough effect; inconclusive = small, poorly fitted or top-dose-only effect, or another doubt; inactive = no such curve, though single readings can be large; an effect the other way counts as inactive or inconclusive. Potency is the fitted concentration of half-maximal effect. A portion of the library; rates above refer to the full screens.

SMILES	Cruzain inh noDet	Cruzain inh Det
CCCCC(CC)COC(=O)c1ccc(C(=O)OCC(CC)CCCC)c(C(=O)OCC(CC)CCCC)c1 (stereo not given)	-1.8%	5.8%
COC/C=C/C1=CC2=CC(=O)C(C)(O)C(=O)C2=CO1 (stereo not given)	?	4.6%
COc1cc2oc(=O)cc(-c3ccc(-c4ccc(NC(C)=O)cc4)cc3)c2c(OC)c1OC	16.9%	-0.8%
CCCn1c(C)nc2c(NCCCCN(C)C)nc(C)nc21	-9.6%	-3.3%
CCCC(=O)Nc1ncnc2c1ncn2[C@@H]1O[C@H]2COP(=O)(O)O[C@@H]2[C@@H]1OC(=O)CCC	-1.8%	-2.6%
Cc1ccc(C)cc1	-4.8%	4.1%
N#CCCCl	-7.3%&0.5%	?
CCC(C)=O	-1.3%	4.4%
Cc1cccc(C)c1[N+](=O)[O-]	-4.2%	0.7%
COc1cc2c(cc1O)-c1c(O)c(OC)cc3c1[C@H](C2)N(C)CC3	2.5%	-7.3%
COC(=O)C(c1ccccc1)C1CCCCN1 (stereo not given)	-12.6%	-2.7%
CCCCCCCCCCCCCCCC(=O)NCC(=O)O	3.9%	0.4%
O=C(/C=C\C=C/c1ccc2c(c1)OCO2)N1CCCCC1	-9.4%	-5.4%
COc1cccc([C@@H]2Oc3ccc(OC)cc3C(=O)[C@H]2OC(=O)NCCOc2ccccc2)c1	-11.3%	-2.6%
c1ccc(COCc2ccccc2)cc1	-5.0%	0.2%
C[C@@H]1Cc2ccccc2N1NC(=O)c1ccc(Cl)c(S(N)=O)c1 (stereo not given in full)	-5.8%	-1.2%
COC(=O)c1ccc2[se]c(CC3CCCCC3)c(I)c2c1	1.4%	1.0%
C=C[C@@]1(C)CC[C@H](O)[C@H]2C(=O)CCC[C@@H]21	2.7%	2.2%
CC1=C(C)C[C@@]23CCCN2C(=O)CCC[C@H]3C1	-1.3%	1.0%
COc1c(O)c(O)cc2c1oc1c3cc(C)ccc3oc(=O)c21	-4.7%	-17.8%
CC(C)=CCc1c(O)cc(O)c2c1O[C@H](c1ccccc1)CC2=O	8.4%	-7.4%
CC(=O)[O-].CC(=O)[O-].CC(=O)[O-].[Cr+3]	1.5%	1.3%
CCCCC1=CC2=CC(=O)C(C)(OC(=O)c3ccc(Cl)nc3)C(=O)C2=CO1 (stereo not given)	-8.8%	0.6%
C[N+]1(C)C[C@@H](O)C[C@@H]1C(=O)[O-]	-5.4%	-3.7%
CCCCCC(=O)/C=C/[C@@H]1[C@@H](C/C=C\CCCC(=O)O)[C@@H](O)C[C@H]1O	-2.3%	2.9%
C=C1OC(CO)(n2cnc3c(N)ncnc32)C(O)C1O (stereo not given)	-7.2%	-1.0%
COC(=O)CCCC1=CC2=CC(=O)C(C)(OC(=O)c3ccc(Cl)nc3)C(=O)C2=CO1 (stereo not given)	0.7%	-0.8%
C/C(=C\C1CCCCC1)C(NC(=O)c1cccnc1)c1ccc(-c2ccccc2)cc1 (stereo not given)	?	0.7%
O=NN(CCO)CCO	-6.4%	1.3%
CCCc1cc2c(n1Cc1cccc(Cl)c1)C(C)C1CN(C(=O)c3ccccc3)C(C)(C(=O)OC)C21 (stereo not given)	?	0.8%
Nc1c2ccccc2nc2c(O)cccc12	-8.8%	-6.2%
CCC/C=C(\CCC)C(NC(=O)c1cccs1)c1ccc(C(=O)OC)cc1 (stereo not given)	-5.3%	1.3%
CN(C)c1ccc(C2(c3ccc(N(C)C)cc3)OC(=O)c3cc(N(C)C)ccc32)cc1	25.1µM*	-5.2%
COC(=O)CNC(=O)[C@@]1(C)C=C[C@@H](Cc2ccccc2)N1C(=O)OC	-7.8%	-2.0%
C[C@H](CO)NC(=O)[C@H]1C[C@@H]1[C@H](NP(=O)(c1ccccc1)c1ccccc1)c1ccccc1	-0.7%	1.1%
C/C=C1\CC2C=CC1C2 (stereo not given)	-3.5%	1.3%
CCC1=C2CC[C@H]3C(=O)N(C)C(=O)[C@H]3[C@H]2[C@@]2(C)C(=NCC(=O)OC)OC(=O)N2C1=O	-2.2%	2.3%
CN1CCC2=C[C@H](O)[C@@H]3OC(=O)c4cc5c(cc4[C@H]3[C@H]21)OCO5	6.0%	-0.3%
CCC/C=C(\CCC)C(NC(=O)c1ccc(C(F)(F)F)cc1)c1ccccc1 (stereo not given)	-7.7%	-1.0%
COc1c(C)c2c(c(O)c1CC=C(C)CCC(=O)OCCN1CCOCC1)C(=O)OC2	-5.1%	1.6%

4 records picked at random from the list so far:
SMILES	Cruzain inh noDet	Cruzain inh Det
C[C@H](CO)NC(=O)[C@H]1C[C@@H]1[C@H](NP(=O)(c1ccccc1)c1ccccc1)c1ccccc1	-0.7%	1.1%
CCC/C=C(\CCC)C(NC(=O)c1cccs1)c1ccc(C(=O)OC)cc1 (stereo not given)	-5.3%	1.3%
CCCCCC(=O)/C=C/[C@@H]1[C@@H](C/C=C\CCCC(=O)O)[C@@H](O)C[C@H]1O	-2.3%	2.9%
CCCc1cc2c(n1Cc1cccc(Cl)c1)C(C)C1CN(C(=O)c3ccccc3)C(C)(C(=O)OC)C21 (stereo not given)	?	0.8%

(cont.)
SMILES	Cruzain inh noDet	Cruzain inh Det
Nc1ccc(N)cc1	-8.1%	-0.7%
CCCCC[C@H](O)/C=C/[C@H]1OC(O)C[C@H](O)[C@@H]1C/C=C\CCCC(=O)O (stereo not given in full)	-8.8%	-0.7%
CN(C)C(=O)Nc1ccc(Cl)cc1	7.8%	-2.9%
Clc1cc(Cl)c(Cl)c(Cl)c1	4.3%	5.9%
CCCC/C=C/C(NC(=O)OCc1ccccc1Cl)c1ccccc1 (stereo not given)	-0.2%	2.7%
[N-]=[N+]=[N-]	-1.7%	-2.1%
CCCCCC(=O)/C=C/C=C\C/C=C\C/C=C\CCCC(=O)O	-6.5%	3.5%
Cc1cccc([C@H]2[C@@H]3C=CC(C)C[C@@H]3C(=O)N2Cc2ccccc2)c1 (stereo not given in full)	-4.2%	-2.5%
C=CCC(C)(O)c1ccco1 (stereo not given)	0.6%	0.3%
CC[C@H](C)C(=O)O[C@@H]1C[C@H](C)C=C2C=C[C@H](C)[C@@H](CC[C@H]3C[C@@H](O)CC(=O)O3)[C@H]21	?	-6.9%
C/C=C1\C[N@@+]2(C)CC[C@@]34C(=C(C=O)[C@H]1C[C@H]32)Nc1ccccc14	-6.5%	-4.0%
CC1C(=O)OC2CC34C5CC(C(C)(C)C)C36C(OC(=O)C6O)OC4(C(=O)O5)C21O (stereo not given)	1.0%	5.0%
CCCn1c(C)nc2c(NCCN3CCCCC3)nc(C)nc21	-2.5%	-0.1%
CCCCNC(=O)n1c(NC(=O)OC)nc2ccccc21	-2.8%	-1.1%
O=S(=O)(O)F	-0.7%	5.3%
CCC1=C(OC(=O)N(CC)CC)N2C(=O)OC(=NCCOC)[C@]2(C)[C@H]2C1=CC[C@H]1C(=O)N(CC(=O)OC)C(=O)[C@H]12	?	2.6%
Cc1cccc(C)c1N	-3.3%	1.3%
CCCCCCN(C(=O)CCCCCN1C(=O)NC(C2CCCCC2)C(C(=O)OCc2ccccc2)=C1C)C(C(=O)NCCCC)c1ccc(OCC(=O)OC)c(C(=O)OC)c1 (stereo not given)	?	2.0%
CCCCC/C=C\C\C=C/C=C/C=C/[C@@H](SCC(N)C(=O)O)[C@@H](O)CCCC(=O)O (stereo not given in full)	2.9%	3.4%
COCCN(CCOC)c1nc(C)nc2c1nc(-c1ccccc1)n2CCCN(C)C	-7.6%	-4.8%
NS(=O)(=O)O	7.1%	6.5%
CCOC(=O)C1(C(C)C)Oc2ccccc2C(c2ccc(OC)cc2)=C1C(=O)OC (stereo not given)	11.3%	-1.8%
CCCCCCCCCC(=O)O[C@H]1CC[C@H]2[C@@H]3CCC4=CC(=O)CC[C@@H]4[C@H]3CC[C@]12C	-4.2%	0.5%
CO[C@@H]1CC[C@@]2(C)[C@@H](CC[C@@]3(C)[C@H]2CC=C2[C@H]4CC(C)(C)[C@H](O)[C@@H](OC(C)=O)[C@]4(CO)[C@H](O)C[C@]23C)[C@@]1(C)CO (tested in a mixture with another compound)	?	-4.2%
C=CCO	-2.2%	2.5%
O=C(/C=C/c1ccc2c(c1)OCO2)c1cccs1	12.6%	0.9%
CC(C)[C@@H](CC(=O)N[C@@H]1CCNC[C@H]1C(=O)N[C@H](CC(=O)N[C@@H](CCC(=O)O)CC(=O)O)Cc1c[nH]c2ccccc12)NC(=O)C[C@H](Cc1ccccc1)NC(=O)[C@@H]1CCCC[C@H]1N	11.7%	1.7%
Oc1c(Cl)c(Cl)cc(Cl)c1Cl	-5.4%	-4.6%
CCCCC[C@H](O)/C=C/C=C\C=C\[C@@H](O)C/C=C\CCCC(=O)O	-6.8%	-3.2%
CC1(OC(=O)c2cnc3ccccc3n2)C(=O)C=C2C=C(c3ccsc3)OC=C2C1=O (stereo not given)	-1.8%	5.2%
NNC(N)=S	-13.4%	-29.2%
CCCC1(C(=O)OC)C=C2C(=C(C(C)C)C(=O)C2C)CN1 (stereo not given)	-6.3%	0.2%
CC[C@H]1C(c2ccccc2)=NN(c2ccccc2)[C@@H]1CO	?	-7.5%
CN1CC[C@@]23c4ccccc4N[C@H]1[C@]21CCN(C)[C@@H]3Nc2ccccc21	-1.0%	2.6%
CCCn1c(C)nc2c(N(C)CCN(C)C)nc(C)nc21	-1.1%	-3.2%
COC(=O)c1ccc(C(NC(=O)OCc2ccccc2)/C(=C/[C@@H](C)C(=O)NCC2CC2)c2cccnc2)cc1 (stereo not given in full)	?	-3.3%
Oc1ccc(Cl)cc1Cl	-7.1%	1.2%
ClC1=C(Cl)C(Cl)(Cl)C(Cl)=C1Cl	-2.2%	-4.6%
COC(=O)[C@@]1(Cc2ccccc2)[C@H]2c3cc(C(=O)N4CCCC4)n(CC4CC4)c3C[C@H]2CN1C(=O)c1ccccc1	?	-1.4%
CCCCCl	-5.8%	3.2%
C[C@@H]1[C@H](C)CC[C@@]2(C(=O)O)CC[C@]3(C)C(=CC[C@H]4[C@@]5(C)CC[C@@H](O)C(C)(C)[C@@H]5CC[C@@]43C)[C@@H]12	7.1%	-3.8%
COC(=O)CNC(=O)C1(C)C=CC2(CCCCC2)N1C(C)=O (stereo not given)	-6.7%	4.5%
CO[C@H]1C[C@@H](O[C@@H]2[C@H](C)[C@H](O[C@@H]3O[C@@H](C)C[C@@H](N(C)C)[C@@H]3O)[C@H](C)C[C@]3(CO3)C(=O)[C@H](C)[C@H](O)[C@H](C)[C@H](C)OC(=O)[C@@H]2C)O[C@@H](C)[C@H]1O	2.6%	-2.6%
CCOP(=S)(OCC)Oc1ccc([N+](=O)[O-])cc1	2.1%&-15.4%	-8.3%&-3.4%
COC(=O)c1cccc(C23CC4(C2)[C@H](CN(CC2CCCCC2)[C@@H]4c2ccccc2)C3c2ccc(Cl)nc2)c1 (stereo not given in full)	-7.5%	0.0%
COC(=O)c1ccc(C(NC(=O)OCc2ccccc2)/C(=C/[C@@H](C)C(=O)Nc2ccc(OC)cc2)c2cccnc2)cc1 (stereo not given in full)	-3.6%	4.3%
Cc1ccc(S(=O)(=O)N2CCC(=O)N([C@H](COCc3cccc(C(F)(F)F)c3)Cc3ccccc3)CC2)cc1	1.1%	-1.4%
CC(Cc1ccccc1)C(=O)NCC1CC1 (stereo not given)	-1.9%	2.4%
COc1cc2c(cc1O)[C@H]1Cc3ccc(OC)c(O)c3CN1CC2	0.7%	-9.0%
CC[N+](=O)[O-]	-7.6%	3.0%
CCC1=C2CC[C@H]3C(=O)N(c4ccccc4)C(=O)[C@H]3[C@H]2[C@@]2(C)C(=O)N(CC(=O)OC)C(=O)N2C1=O	0.2%	-0.4%
COC(=O)c1ccc(C23CC2(C(NP(=O)(c2ccccc2)c2ccccc2)c2ccccc2)C3)cc1 (stereo not given)	-8.1%	-7.0%
COC(=O)N[C@@H](CCc1ccccc1)/C(C(=O)OC)=C(\C)NCc1ccccc1	-4.9%	1.0%
COc1cc(C2CC(=O)Oc3ccc(O)cc32)cc(OC)c1OC (stereo not given)	3.1%	2.9%
CCCn1c(-c2ccc(F)cc2)nc2c(N3CCN(C)CC3)nc(C)nc21	-4.9%	-6.4%
CCCN1[C@@H]2C[C@@H](O)CC[C@@H]2C[C@H]1C(=O)OC	-3.4%	4.4%
CCN(CC)CCCCn1c(-c2ccccc2)nc2c(NCc3ccccc3)nc(C)nc21	-4.5%	-14.1%
C=CC(=O)OCC(C)C	-2.2%	0.5%
CCCCCC[C@@H](O)C/C=C\CCCCCCCC(=O)O	-3.0%	3.7%
C=C1CC23C[C@H]4[C@@H]5[C@@]6(C)C[C@H](OC(=O)c7ccccc7)[C@@H](OC(C)=O)[C@]57[C@@H]2[C@@H](OC(C)=O)[C@H]1[C@@H](O)[C@H]3[C@H]7N4C6	-13.8%	-6.7%

Quoted from the listing.
Cruzain inh noDet with CC(C)=CCc1c(O)cc(O)c2c1O[C@H](c1ccccc1)CC2=O → 8.4%
Cruzain inh noDet with CCC1=C2CC[C@H]3C(=O)N(C)C(=O)[C@H]3[C@H]2[C@@]2(C)C(=NCC(=O)OC)OC(=O)N2C1=O → -2.2%
Cruzain inh Det with Cc1ccc(C)cc1 → 4.1%
Cruzain inh Det with CCCCC[C@H](O)/C=C/[C@H]1OC(O)C[C@H](O)[C@@H]1C/C=C\CCCC(=O)O (stereo not given in full) → -0.7%
Cruzain inh Det with CC1C(=O)OC2CC34C5CC(C(C)(C)C)C36C(OC(=O)C6O)OC4(C(=O)O5)C21O (stereo not given) → 5.0%
